Screening data from PubChem.
Sa RN4220 lethal – S. aureus RN4220 growth inhibition; inhibition, % (no concentration beside the values); OD600, 16 h; actives 0.33% (n = 330,000); AID 1259311;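 active means z-score of -3 or lower and OD600 up to 0.18 on both plates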;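 further: plate controls were untreated cells for no effect and reference antibiotic for full effect; stock transfer was 100 nL into about 80 µL; one replicate is shown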
BJeLR lethal – kills HRASV12-expressing BJeLR cells. BJeLR (HRASV12) viability, CellTiter-Glo ATP luminescence, 48 h; reference of the scale not given here. inhibition, % (concentration not given with the values). actives 0.17% (n = 300,000). AID 1554;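 active means replicate mean above 50%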;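 further: 50 nL library stock added to about 25 µL; numbers are from one replicate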
PrP 5UTR inh – suppresses PrP 5' UTR mRNA reporter expression | inhibition, % (no concentration beside the values) | actives 0.35% (n = 340,000) | cell-based PrP 5' UTR mRNA reporter, plate reader;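 active means every replicate at 50% or more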;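 further: 0 = median of the neutral control wells; tested in H4 reporter cells; numbers are from one replicate; inactives centre near -14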
Sa ugtP lethal – compounds lethal to S. aureus RN4220 ugtP deletion mutant; OD600 growth, 16 h; some inactives read as strong as hits; AID 1259309; actives 0.54% (n = 330,000); growth inhibition, % (no concentration beside the values);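 active means z-score under -3 and OD600 up to 0.15 on both plates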;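 further: plate controls were untreated wells for no effect and antibiotic for full effect; wells of about 80 µL received 100 nL stock; the first replicate is given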
Autofluor counter – flagged as autofluorescent in microsphere protease counterscreen; compound autofluorescence counterscreen, microsphere flow cytometry; active compounds read high; fluorescence intensity (test concentration not listed); actives 3.1% (n = 360,000); AID 624483;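 active means at least 3 SD above the mean of all compounds, about 16000 in these data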;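 further: 100 nL of 1 mM stock went into each well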
Mtb hypoxia rep – inhibitors of hypoxia-regulated fluorescent reporter in Mycobacterium tuberculosis; M. tuberculosis hypoxia-regulated fluorescent reporter, fluorescence; actives 0.1% (n = 300,000); fluorescence inhibition, % (no concentration beside the values); AID 1159583;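 active means 35 to 45% if threefold the growth effect, above 45% if 1.5-fold the growth effect; inactive means the rest, general growth blockers included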;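 further: wells of about 50 µL received 100 nL stock; 0% = vehicle wells and 100% = reference inhibitor wells; whole bacteria with a GFP reporter of the hypoxia response; strong numbers were not always called active; many hits fall short of the cut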
Mtb hypoxia rep growth – recorded beside Mtb hypoxia rep, whose call it bears; growth inhibition, %; measured here: M. tuberculosis growth (absorbance);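 0% = vehicle and 100% = reference antibiotic; read after six days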
* marks the source's active call; other numbers are inactive results.

Results for C=C(C)COc1ccc(-c2ncncc2-c2ccc(OC)cc2)c(O)c1 ?
Sa RN4220 lethal: -0.7; BJeLR lethal: -4; PrP 5UTR inh: -18; Sa ugtP lethal: 11; Autofluor counter: 3121; Mtb hypoxia rep: 6; Mtb hypoxia rep growth: 5

What do the screens show for `CCOC(=O)c1c(C)[nH]c(C(=O)OCC(=O)N(C)C2CCS(=O)(=O)C2)c1C` (centres undefined)?
Sa RN4220 lethal: 4.4; BJeLR lethal: -12; PrP 5UTR inh: -10; Sa ugtP lethal: -1; Autofluor counter: 2818; Mtb hypoxia rep: 14; Mtb hypoxia rep growth: 6

How did CCOc1cccc(OCCCCn2ccnc2)c1 do in these assays?
Sa RN4220 lethal: 4.1; BJeLR lethal: 6; PrP 5UTR inh: -13; Sa ugtP lethal: -1; Autofluor counter: 3073; Mtb hypoxia rep: 16; Mtb hypoxia rep growth: 17

What do the screens show for `O=C(CN1CCOCC1)NCCNS(=O)(=O)c1ccccc1`?
Sa RN4220 lethal: 1.7; BJeLR lethal: -2; PrP 5UTR inh: -19; Sa ugtP lethal: -1; Autofluor counter: 5684; Mtb hypoxia rep: -3; Mtb hypoxia rep growth: 13

Results for N#CC1=C2SC=C(c3ccc(Br)cc3)N2CCCC1=O ?
Sa RN4220 lethal: 27; BJeLR lethal: -6; PrP 5UTR inh: -68; Sa ugtP lethal: 77; Autofluor counter: 3291; Mtb hypoxia rep: 3; Mtb hypoxia rep growth: 9

How did COC(=O)C1C(C(=O)OC)C1(c1ccccc1)c1ccccc1 (centres undefined) do in these assays?
Sa RN4220 lethal: 2.3; BJeLR lethal: 5; PrP 5UTR inh: -22; Sa ugtP lethal: -1; Autofluor counter: 6562; Mtb hypoxia rep: 10; Mtb hypoxia rep growth: 4

What do the screens show for `CCCC(O)=C1C(=O)CC(c2ccccc2)CC1=NCCc1c(C)[nH]c2ccc(C)cc12` (centres undefined)?
Sa RN4220 lethal: 4.6; Sa ugtP lethal: -16; Mtb hypoxia rep: -3; Mtb hypoxia rep growth: 4

How did CC1=C(C#N)C(Nc2ccc(C)cn2)(C(F)(F)F)C(=O)N1 (centres undefined) do in these assays?
Sa RN4220 lethal: 2.3; BJeLR lethal: -2; PrP 5UTR inh: -3; Sa ugtP lethal: -3; Autofluor counter: 10135; Mtb hypoxia rep: 9; Mtb hypoxia rep growth: 12

What do the screens show for `CCN(CC)S(=O)(=O)c1ccc(Cl)c(NC(=O)COC(=O)/C=C/c2ccc(O)c(OC)c2)c1`?
Sa RN4220 lethal: 2.5; BJeLR lethal: 3; PrP 5UTR inh: -16; Sa ugtP lethal: 0; Autofluor counter: 9449; Mtb hypoxia rep: 0; Mtb hypoxia rep growth: 2

Results for C/C(CC1CC(COCC(C)C)OC1=O)=N\Nc1nc(-c2ccccc2)cs1 (centres undefined) ?
BJeLR lethal: -3; PrP 5UTR inh: -21; Autofluor counter: 10765

How did Cc1nc2sccn2c(=O)c1S(=O)(=O)Nc1ccc(N2CCN(C(=O)C(C)C)CC2)cc1 do in these assays?
Sa RN4220 lethal: 6.1; BJeLR lethal: 0; PrP 5UTR inh: -23; Sa ugtP lethal: 11; Autofluor counter: 2849; Mtb hypoxia rep: 6; Mtb hypoxia rep growth: 8

How did CCOc1ccccc1C(=O)OCC(=O)Nc1cc(S(=O)(=O)N2CCOCC2)ccc1C do in these assays?
Sa RN4220 lethal: 4.1; PrP 5UTR inh: -16; Sa ugtP lethal: 1; Autofluor counter: 8720; Mtb hypoxia rep: 4; Mtb hypoxia rep growth: 1

What do the screens show for `O=C(CN1CCCCC1)Nc1ccc(Br)cc1C(=O)c1ccccc1Cl`?
Sa RN4220 lethal: 3.3; BJeLR lethal: 7; PrP 5UTR inh: -14; Sa ugtP lethal: 89*; Autofluor counter: 9061; Mtb hypoxia rep: 7; Mtb hypoxia rep growth: 4

What do the screens show for `COc1cccc(NC(=O)Cc2c(C(=O)O)[nH]c3ccccc23)c1`?
Sa RN4220 lethal: 3.7; BJeLR lethal: -13; PrP 5UTR inh: -13; Sa ugtP lethal: 12; Autofluor counter: 7758; Mtb hypoxia rep: 7; Mtb hypoxia rep growth: 3

What do the screens show for `CC(=O)c1cccc(NC(=O)Nc2c(C)nn(C)c2C)c1`?
Sa RN4220 lethal: 4.7; BJeLR lethal: -2; PrP 5UTR inh: -17; Sa ugtP lethal: -10; Autofluor counter: 9247; Mtb hypoxia rep: 15; Mtb hypoxia rep growth: 9

How did c1coc(Cn2nnnc2CN2CCN(C3CCCC3)CC2)c1 do in these assays?
Sa RN4220 lethal: -1.0; BJeLR lethal: 2; PrP 5UTR inh: -17; Sa ugtP lethal: 5; Autofluor counter: 2894

What do the screens show for `CCOC(=O)c1cn2nc(OP(=S)(OCC)OCC)cc2nc1C`?
Sa RN4220 lethal: 4.1; PrP 5UTR inh: -22; Sa ugtP lethal: -12; Autofluor counter: 2629

What do the screens show for `C=CCN(Cc1cccs1)C(=O)COc1ccc2c(c1)OCO2`?
Sa RN4220 lethal: 6.7; PrP 5UTR inh: -13; Sa ugtP lethal: 2; Autofluor counter: 3898; Mtb hypoxia rep: 9; Mtb hypoxia rep growth: 7

How did COc1ccc(C(NC(=O)/C=C/c2ccco2)c2ccc(OC)c(OC)c2)cc1OC do in these assays?
Sa RN4220 lethal: 3.0; BJeLR lethal: 1; PrP 5UTR inh: -17; Sa ugtP lethal: 1; Autofluor counter: 2652; Mtb hypoxia rep: 5; Mtb hypoxia rep growth: -2

What do the screens show for `COc1ccc(CCNC(=O)C2CCC(CNc3c(N4CCCC4)c(=O)c3=O)CC2)cc1OC` (centres undefined)?
Sa RN4220 lethal: 7.9; BJeLR lethal: -4; PrP 5UTR inh: 1; Sa ugtP lethal: 1; Autofluor counter: 2358; Mtb hypoxia rep: 3; Mtb hypoxia rep growth: 6

What do the screens show for `O=C(Nc1ccc(Oc2ccc(NC(=O)Nc3ccccc3Cl)cc2)cc1)Nc1ccccc1Cl`?
Sa RN4220 lethal: 4.0; BJeLR lethal: 13; PrP 5UTR inh: 1; Sa ugtP lethal: 12; Autofluor counter: 3937; Mtb hypoxia rep: -2; Mtb hypoxia rep growth: 7

How did CCCCC(=O)c1ccc(OC(=O)c2ccc([N+](=O)[O-])cc2)cc1 do in these assays?
Sa RN4220 lethal: 6.5; PrP 5UTR inh: -3; Sa ugtP lethal: 49; Autofluor counter: 3823; Mtb hypoxia rep: 22; Mtb hypoxia rep growth: 5

How did CC(C)CCC(C)NC(=O)CN1C(=O)NC(C)(c2ccc3ccccc3c2)C1=O (centres undefined) do in these assays?
Sa RN4220 lethal: -2.5; BJeLR lethal: 6; PrP 5UTR inh: -40; Sa ugtP lethal: -1; Autofluor counter: 5261; Mtb hypoxia rep: 3; Mtb hypoxia rep growth: 2

How did CCc1ccc(OCC(=O)O/N=C(\N)c2ccncc2)cc1 do in these assays?
Sa RN4220 lethal: 4.1; BJeLR lethal: 0; PrP 5UTR inh: -13; Sa ugtP lethal: -2; Autofluor counter: 6596; Mtb hypoxia rep: 4; Mtb hypoxia rep growth: 4

Results for COc1cccc(C=NNC(=S)NC2CC3CC2C2C=CCC32)c1O (centres undefined) ?
Sa RN4220 lethal: 1.5; Sa ugtP lethal: -4; Mtb hypoxia rep: -8; Mtb hypoxia rep growth: -3

What do the screens show for `CCC1(C)CC(=O)N(c2ccc(C(=O)O)c(O)c2)C1=O` (centres undefined)?
Sa RN4220 lethal: 3.5; BJeLR lethal: -1; PrP 5UTR inh: -15; Sa ugtP lethal: 5; Autofluor counter: 5973

How did COc1cc(NC(=O)CN2CCN(c3ccccc3)CC2)c(C)cc1[N+](=O)[O-] do in these assays?
Sa RN4220 lethal: -1.1; BJeLR lethal: 2; PrP 5UTR inh: -20; Sa ugtP lethal: 5; Autofluor counter: 2049; Mtb hypoxia rep: 0; Mtb hypoxia rep growth: -1

How did Cc1cc(-c2c(C(=O)N3CCOCC3)c(C)nn2-c2cccc(C(F)(F)F)c2)no1 do in these assays?
Sa RN4220 lethal: 1.8; BJeLR lethal: -11; PrP 5UTR inh: -16; Sa ugtP lethal: 12; Autofluor counter: 4002; Mtb hypoxia rep: 5; Mtb hypoxia rep growth: 8

How did COc1ccc(-n2c(=S)[nH]c3cc(C(=O)Nc4cc(OC)c(OC)c(OC)c4)ccc3c2=O)c(OC)c1 do in these assays?
Sa RN4220 lethal: -3.1; BJeLR lethal: 11; PrP 5UTR inh: 0; Sa ugtP lethal: 3; Autofluor counter: 4037; Mtb hypoxia rep: -4; Mtb hypoxia rep growth: 7

How did COc1ccc(NC(=O)C2CC(=O)N=C(N)S2)cc1 (centres undefined) do in these assays?
Sa RN4220 lethal: 3.9; BJeLR lethal: 20; PrP 5UTR inh: -1; Sa ugtP lethal: 1; Autofluor counter: 4288; Mtb hypoxia rep: 2; Mtb hypoxia rep growth: -5

What do the screens show for `COc1ccc(/C=N/NC(=O)c2cccc(Br)c2)cc1COc1ccccn1`?
BJeLR lethal: 7; PrP 5UTR inh: -21; Autofluor counter: 5508

What do the screens show for `Cc1cc(C)n2nc(SCC(=O)Nc3c(C)nn(-c4ccccc4)c3C)nc2n1`?
Sa RN4220 lethal: -1.0; BJeLR lethal: -2; PrP 5UTR inh: 5; Sa ugtP lethal: -3; Autofluor counter: 3326; Mtb hypoxia rep: 2; Mtb hypoxia rep growth: 1

How did S=C(NN=Cc1ccccc1)N1CCOCC1 do in these assays?
Sa RN4220 lethal: 6.0; Sa ugtP lethal: 3; Mtb hypoxia rep: 12; Mtb hypoxia rep growth: 2

How did Cc1ccc(C(=O)Nc2nc(-c3ccc(F)cc3)cs2)o1 do in these assays?
Sa RN4220 lethal: 15; BJeLR lethal: -10; PrP 5UTR inh: -32; Sa ugtP lethal: -6; Autofluor counter: 4490; Mtb hypoxia rep: -1; Mtb hypoxia rep growth: 8

How did COc1ccc(-n2ncc3c(=O)n(CC(=O)OCc4ccccc4)cnc32)cc1 do in these assays?
Sa RN4220 lethal: -2.2; BJeLR lethal: -3; PrP 5UTR inh: -16; Sa ugtP lethal: 9; Autofluor counter: 10136; Mtb hypoxia rep: 3; Mtb hypoxia rep growth: 5

What do the screens show for `COc1ccc(CC(=O)Nc2nnc(SCc3ccccc3)s2)cc1S(=O)(=O)N1CCOCC1`?
Sa RN4220 lethal: -3.6; BJeLR lethal: -2; PrP 5UTR inh: -17; Sa ugtP lethal: 5; Autofluor counter: 4895

What do the screens show for `CCCCN=C1NN=C(c2ccc3c(c2)OCCO3)CS1`?
Sa RN4220 lethal: 3.2; BJeLR lethal: -3; PrP 5UTR inh: -4; Sa ugtP lethal: 2; Autofluor counter: 4701; Mtb hypoxia rep: 4; Mtb hypoxia rep growth: 2

How did Cc1cc(C=NNC(=O)CC(=O)NC2CCCCC2)c(C)n1-c1ccc(Cl)c(Cl)c1 do in these assays?
Sa RN4220 lethal: -3.6; Sa ugtP lethal: -14; Mtb hypoxia rep: -4; Mtb hypoxia rep growth: 8

How did COc1ccc(C=NN2CCN(C)CC2)c(OC)c1OC do in these assays?
Sa RN4220 lethal: 2.9; Sa ugtP lethal: 12; Mtb hypoxia rep: -4; Mtb hypoxia rep growth: 3

How did Cc1ccc(S(=O)(=O)N2CCCCC2)cc1 do in these assays?
Sa RN4220 lethal: 1.4; BJeLR lethal: 0; PrP 5UTR inh: -35; Sa ugtP lethal: 4; Autofluor counter: 3933; Mtb hypoxia rep: 6; Mtb hypoxia rep growth: 5
